Hsc70: Hsc70 inhibitors, probe displacement, primary screen, biochemical, fluorescence polarization (AID 568); Hsc70 fluorescence polarization, probe displacement; higher % means a stronger effect; strong numbers were not always called active; 83,000 tested, under 10 active; displacement, % at 20 µM, or IC50 in µM where a hit was titrated;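 active means displacement above 50% without optical interference and an IC50 on retest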;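 further: ATPase domain with a fluorescein-tagged ATP probe; 0% = vehicle and 100% = excess ADP; read after one hour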
WNV protease inh: blocks West Nile virus NS2B-NS3 protease activity. 65,000 tested, 0.18% active. WNV NS2B-NS3 protease, fluorogenic substrate Ex360/Em465; stronger effect = lower value. z-score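 (tested at a level between 10 and 100 µM)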;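 active means z-score at -3 or under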;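 further: score is relative to mean and spread of the compound wells of a plate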
Target sequence (P06935 1371-1501 limits assumed): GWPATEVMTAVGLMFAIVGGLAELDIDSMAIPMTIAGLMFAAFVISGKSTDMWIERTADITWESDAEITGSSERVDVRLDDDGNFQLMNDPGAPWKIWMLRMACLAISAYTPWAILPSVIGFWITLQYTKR
Target sequence (P06935 1502-1679 limits assumed): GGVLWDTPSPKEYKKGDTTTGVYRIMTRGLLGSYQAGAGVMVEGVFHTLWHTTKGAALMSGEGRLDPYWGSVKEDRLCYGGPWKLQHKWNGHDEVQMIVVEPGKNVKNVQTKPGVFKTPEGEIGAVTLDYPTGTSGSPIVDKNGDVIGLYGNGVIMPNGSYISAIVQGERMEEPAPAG
MT1-MMP promoter: MT1-MMP gene expression reporter suppression – cell-based, luciferase reporter, luminescence (AID 618). calls from a first round at 10 µM; hits with a dose series show EC50 in µM. MT1-MMP promoter luciferase reporter cells, luminescence. 87,000 tested, 0.62% active;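 active means over half of the reporter light lost at 10 µM or EC50 under 50 µM; inactive means the rest and hits that failed the dose series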;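 further: actives suppress MT1-MMP promoter-driven transcription so potencies describe inhibitors; HT1080 fibrosarcoma cells; overnight exposure; toxic or luciferase-blocking compounds were not removed from the actives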
* marks the source's active call; other numbers are inactive results; i = inactive; . = no result given.

SMILES,Hsc70,WNV protease inh,MT1-MMP promoter
O=C(NC1=NCCS1)c1cccc(S(=O)(=O)N2CCCCC2)c1,-5.2%,0.75,i
C=CCNC(=O)c1ccccc1NS(=O)(=O)c1ccccc1,-5.3%,0.34,i
Cc1ccc(C(CC(=O)NCc2ccco2)c2ccc(OC(C)C)cc2)cc1 (stereo unspecified),8.9%,.,i
Cc1cccc(N(CC(=O)Nc2ccc(F)cc2)S(C)(=O)=O)c1,3.1%,.,i
COCCNCC(=O)NCC12CC3CC(CC(C3)C1)C2,-2.6%,.,i
CCOc1ccc(-n2c(-c3ccco3)n[nH]c2=S)cc1,2.2%,-0.54,i
O=C(NCc1ccc2c(c1)OCO2)C1CCCN(S(=O)(=O)c2cccc3cccnc23)C1 (stereo unspecified),5.9%,1.1,i
Cc1cccc2c1NC(C)CC2C (stereo unspecified),-9.3%,0.33,i
CCOC(=O)CNc1ccc2c(c1)OCO2,79%,0.24,i
Cc1ccc(-c2nc(C3CCN(S(=O)(=O)c4ccc(C(F)(F)F)cc4)CC3)no2)cc1,-3.4%,-0.09,i
CCCn1c(SCC(=O)c2ccc(OC)c(OC)c2)nc2c1c(=O)n(C)c(=O)n2C,5.5%,.,i
CCCN1C(=O)c2cc(C(=O)Nc3ccccc3CC)ccc2C1O (stereo unspecified),2.8%,-0.38,i
COC(=O)c1ccccc1NC(=O)Cn1cnc2c(cnn2-c2ccccc2)c1=O,-1.4%,0.25,i
Cc1ccc(NC(=O)Cc2noc3ccccc23)cc1,1.7%,.,i
Cc1ccccc1CNS(=O)(=O)c1ccc2c(c1)OCCO2,-7.9%,-0.1,i
O=C(NCc1nnc(SCC(=O)N2CCC(Cc3ccccc3)CC2)o1)c1ccccc1F,6.2%,0.22,i
Cc1cc(OCC(O)CN2CCN(C)CC2)ccc1C(C)C (stereo unspecified),1.0%,-0.84,i
O=C(Cn1nc(Cl)nc1Cl)c1ccc2c(c1)OCCO2,-5.3%,1,i
Cn1c(N2CCOCC2)nc(-c2ccccc2)c1-c1ccccc1,-1.3%,-0.61,i
Cc1cc(NC(=O)CSc2nnc(-c3ccco3)n2CC2CCCO2)no1 (stereo unspecified),-3.6%,-1.4,i
CCCC1(c2ccccc2)NC(=O)N(CCN2C(=O)c3ccccc3C2=O)C1=O (stereo unspecified),0.7%,.,i
COCCCn1c(SCc2nnc(-c3ccc(OC)c(OC)c3)o2)nnc1-c1ccncc1,0.4%,.,i
NS(=O)(=O)c1ccc(CCNC(=O)CNC(=O)C2CCCCC2)cc1,-3.6%,-1.5,i
Cn1c(SCC(=O)N2CCCc3ccccc32)nnc1-c1ccco1,3.1%,0.92,i
CC(C)n1c(NCc2nc3ccccc3n2C)nc2ccccc21,-3.1%,0.98,i
Brc1ccc(C2=CC(c3cccs3)n3ncnc3N2)cc1 (stereo unspecified),30%,.,i
Cc1ccc(-c2nc(C#N)c(NCCc3ccccn3)o2)cc1,-4.2%,1.5,i
c1ccc(CCc2nn3c(C4COc5ccccc5O4)nnc3s2)cc1 (stereo unspecified),4.4%,0.49,i
CC(NC(=O)Cc1c(F)cccc1Cl)C1CCCO1 (stereo unspecified),0.6%,.,i
Cc1ccccc1NC(=O)Cn1cnc2c(oc3ccccc32)c1=O,-4.9%,-1.6,i

SMILES,Hsc70,WNV protease inh,MT1-MMP promoter
COc1cccc(OC)c1C(=O)N1CCN(S(=O)(=O)c2ccc(C)cc2)CC1,-6.8%,0.28,i
O=C(Nc1cccs1)NC1CCCC1,4.0%,0.8,i
COC(=O)c1ccccc1NC(=O)Cn1c(-c2nonc2N)nc2ccccc21,-3.8%,1.5,i
CC(C)C1C(C#N)=C(N)Oc2n[nH]c(-c3ccc4ccccc4c3)c21 (stereo unspecified),6.5%,.,i
Cc1oc(-c2cccs2)nc1CS(=O)CC(=O)NCCc1ccccc1 (stereo unspecified),6.9%,0.94,i
COc1ccc(CCN(C)C(=O)CSc2nccn2C)cc1OC,5.0%,-0.91,i
C=CCn1c(Cc2csc(N)n2)nnc1SCC(=O)OCC,0.5%,-0.16,i
O=C(NCC(=O)N(c1cccnc1)C(C(=O)NC1CCCCC1)c1cccnc1)c1ccco1 (stereo unspecified),3.9%,0.56,i
CCCC(=O)Nc1ccc(Cl)c(NC(=O)c2ccc(Br)o2)c1,5.4%,0.79,i
COc1cccc(N2C(=O)CC(N3CCC(c4nc5ccccc5[nH]4)CC3)C2=O)c1 (stereo unspecified),4.4%,1.8,i
COc1cccc(-c2cc(C(=O)N3CCN(c4ncccn4)CC3)c3ccccc3n2)c1,-11%,0.46,i
Cc1nnc(SC(C)C(=O)Nc2ccc3c(c2)OCCO3)s1 (stereo unspecified),-1.6%,-0.84,i
CCOc1ccc(C(=O)c2nc3c(n2O)CCCCC3)cc1,0.8%,.,i
Cc1cccc(-c2nnc3sc(-c4ccccc4)nn23)c1,1.9%,0.41,i
Cc1cc(NC(=O)CCC(=O)N(c2cccc(F)c2)C(C(=O)NC2CCCC2)c2ccncc2)no1 (stereo unspecified),0.3%,1.4,i
CCCCN(C)CCNC(=O)c1c[nH]c2ccc(S(=O)(=O)N(CC)CC)cc2c1=O,-6.0%,-0.33,i
Cn1c(SCC(=O)N2CCOCC2)nc2sc3c(c2c1=O)CCCC3,-5.3%,-1.4,i
CN(C)c1ccc(-c2nnn(CC(=O)Nc3ccccc3N3CCOCC3)n2)cc1,1.8%,-0.84,i
CC(=O)N1CCN(c2ccc(Oc3nc(-c4ccccc4)nc4ccccc34)cc2)CC1,-0.4%,0.07,i
Cc1ccc(NS(=O)(=O)c2ccc(C)c(C(=O)N3CCN(C)CC3)c2)cc1,2.9%,-0.01,i
O=C(NCc1ccco1)C12CC3CC(CC(C3)C1)C2,4.3%,.,i
CCOC(=O)CC(NS(=O)(=O)c1ccc(NC(C)=O)cc1)c1ccc(OCC)cc1 (stereo unspecified),5.6%,0.36,i
CCOC(=O)CCC(=O)O[C@H]1[C@H](O[C@@H]2[C@@H](C)[C@H](O[C@H]3C[C@@](C)(OC)[C@@H](O)[C@H](C)O3)[C@@H](C)C(=O)O[C@H](CC)[C@@](C)(O)[C@H](O)[C@@H](C)C(=O)[C@H](C)C[C@@]2(C)O)O[C@H](C)C[C@@H]1N(C)C,-5.7%,0.09,i
COC(=O)[C@H](CCSC)NC(=O)N1CCN(Cc2ccccc2)CC1,1.8%,1,i
Cc1cc2cc(CN(Cc3ccco3)C(=O)C3CCCCC3)c(=O)[nH]c2cc1C,-4.7%,0.41,i
COc1ccc(-n2cnnc2SCCC#N)cc1,0.4%,-0.73,i
O=C(c1ccccc1Cl)N1CCNCC1,1.7%,.,i
Cc1ccc(-n2c(SCC(=O)NCC3CCCO3)nnc2-c2ccoc2C)cc1 (stereo unspecified),-16%,-1.2,i
CCN(CC)C(=O)COc1cc(C)cc2oc(=O)cc(-c3ccccc3)c12,2.7%,.,i
O=C(NCCc1ccccc1)NC1CCCCC1,-0.3%,0.54,i

SMILES,Hsc70,WNV protease inh,MT1-MMP promoter
O=C(CN1CCN(S(=O)(=O)c2ccc(F)cc2)CC1)Nc1ccc(Cl)c(C(F)(F)F)c1,-2.2%,-0.71,i
Cn1c(=O)c2c(nc(SCC(=O)NCc3ccc4c(c3)OCO4)n2Cc2ccccc2)n(C)c1=O,-0.7%,-0.01,i
COc1ccc(C(=O)CSc2nnc(C3CCCCC3)n2N)c(OC)c1,-5.4%,0.14,i
O=C(CCn1cccc1)Nc1nccs1,-2.6%,-1.2,i
COCC(=O)Nc1ccc(S(=O)(=O)NCCc2ccccc2)cc1,-7.4%,-0.61,i
CNC(=O)c1c[nH]n2c(=O)c(Cc3ccccc3F)c(C)nc12,2.4%,-0.47,i
COCCOC(=O)c1c(C)n(C)c2ccc(OC(=O)c3ccco3)cc12,0.7%,.,i
CC1CCCN(c2nc3nonc3nc2N2CCCC(C)C2)C1 (stereo unspecified),-3.5%,.,i
Cc1ccc(S(=O)(=O)N(c2cccc(C(F)(F)F)c2)C2C=CS(=O)(=O)C2)cc1 (stereo unspecified),7.6%,-1,i
COC(=O)CC1Oc2ccccc2N(Cc2ccc(C)cc2)C1=O (stereo unspecified),-1.8%,-0.08,i
Cc1nc(N2CCN(C(=O)c3ccco3)CC2)c2c3c(sc2n1)CCCC3,1.7%,.,i
CCC(C)NS(=O)(=O)c1ccc(OCC(=O)NCc2ccco2)cc1 (stereo unspecified),0.1%,-3,i
CCC(C)NC(=O)C1CC(c2ccc(OC)cc2)=NO1 (stereo unspecified),-1.0%,-0.72,i
CCOc1ccc(C(C)C)cc1S(=O)(=O)n1nc(C)cc1C,9.7%,0.11,i
CCc1ccc(N(C(=O)c2ccco2)C(C(=O)NC2CCCC2)c2ccco2)cc1 (stereo unspecified),2.6%,.,i
CCOC(=O)N1CCN(C(=O)Cc2ccsc2)CC1,4.1%,1.4,i
CS(=O)(=O)N(CC(=O)Nc1ccccc1)Cc1ccc(Cl)cc1,-0.7%,.,i
CCc1ccc(-n2c(O)cnc2Nc2nc(C)cc(C)n2)cc1,5.4%,-0.62,i
O=c1c2c3c(sc2nc2n1CCCC2)CCCCC3,1.6%,.,i
Cc1cc(=O)n2nc(N3CCC(C(=O)NC4CCCc5ccccc54)CC3)sc2n1 (stereo unspecified),-3.0%,0.06,i
COc1cc(NC(=O)c2ccccc2)c(OC)cc1NC(=O)CN1CCOCC1,1.0%,-0.93,i
COCCCn1c(SCC(=O)N2CC(=O)Nc3ccccc32)nnc1-c1ccoc1C,-2.9%,-1.2,i
O=C(COc1ccc(S(=O)(=O)N2CCCC2)cc1Cl)NC1CC1,5.6%,-0.95,i
Cc1cccc(NC(=O)c2ccccc2O)c1C,-1.9%,-0.82,i
NC(=O)CSc1nnc(-c2ccc(S(=O)(=O)N3CCCC3)cc2)n1CC1CCCO1 (stereo unspecified),-4.9%,0.98,i
COc1ccc(S(=O)(=O)NCc2ccccn2)cc1,1.6%,.,i
CCN(CC)C(=O)Cn1nc(-c2ccccc2O)nc1SCC(=O)Nc1ccc(OC)cc1,-3.8%,-0.8,i
Nc1nc2nc(SCC(=O)N3CCCc4ccccc43)[nH]c2c(=O)[nH]1,1.1%,-1.2,i
CN(CCc1ccccn1)S(=O)(=O)c1ccc(F)cc1,-0.1%,0.85,i
COC(=O)C1C2C=CC3(CN(Cc4cccs4)C(=O)C13)O2 (stereo unspecified),2.7%,0.99,i

3 of these compounds, set out differently.
SMILES: CCCC1(c2ccccc2)NC(=O)N(CCN2C(=O)c3ccccc3C2=O)C1=O (stereo unspecified)
  Hsc70: 0.7%	WNV protease inh: .	MT1-MMP promoter: i
SMILES: COCCCn1c(SCc2nnc(-c3ccc(OC)c(OC)c3)o2)nnc1-c1ccncc1
  Hsc70: 0.4%	WNV protease inh: .	MT1-MMP promoter: i
SMILES: NS(=O)(=O)c1ccc(CCNC(=O)CNC(=O)C2CCCCC2)cc1
  Hsc70: -3.6%	WNV protease inh: -1.5	MT1-MMP promoter: i

Returning to the listing, starting 6 compounds before the break.
Values run as follows: Hsc70 | WNV protease inh | MT1-MMP promoter
NC(=O)CSc1nnc(-c2ccc(S(=O)(=O)N3CCCC3)cc2)n1CC1CCCO1 (stereo unspecified)
→ -4.9% | 0.98 | i
COc1ccc(S(=O)(=O)NCc2ccccn2)cc1
→ 1.6% | . | i
CCN(CC)C(=O)Cn1nc(-c2ccccc2O)nc1SCC(=O)Nc1ccc(OC)cc1
→ -3.8% | -0.8 | i
Nc1nc2nc(SCC(=O)N3CCCc4ccccc43)[nH]c2c(=O)[nH]1
→ 1.1% | -1.2 | i
CN(CCc1ccccn1)S(=O)(=O)c1ccc(F)cc1
→ -0.1% | 0.85 | i
COC(=O)C1C2C=CC3(CN(Cc4cccs4)C(=O)C13)O2 (stereo unspecified)
→ 2.7% | 0.99 | i
CN1C(=O)CSc2ccc(NC(=O)Nc3ccccn3)cc21
→ 0.8% | 2 | i
CS(=O)c1nc(-c2ccc(Br)cc2)cc(-c2ccccc2)c1C#N (stereo unspecified)
→ 6.2% | -0.15 | i
CCOC(=O)c1c(C)n(C)c2ccc(OC)c(NC(=O)CCN3CCSCC3)c12
→ 2.6% | 0.35 | i
COc1ccc(-c2nc3c(n2O)CCCC3=O)cc1OC
→ 4.4% | 0.55 | i
CCc1c(C)nc(SCC(=O)c2ccc(C)c(C)c2)[nH]c1=O
→ 1.9% | 0.29 | i
COc1ccc(-c2nnc(-c3cccnc3)o2)cc1
→ -3.6% | . | i
Cc1ccc(CCNC(=O)C2CCN(S(=O)(=O)c3cccc4nsnc34)CC2)cc1
→ 6.9% | 0.08 | i
CCCCN(C(=O)NC(=O)Nc1nc2ccc(OC)cc2s1)S(C)(=O)=O
→ 0.3% | -0.86 | i
CNC(=O)c1ccc(Oc2ccc(C(=O)NC)cc2)cc1
→ -8.2% | -0.0096 | i

High-throughput results from PubChem.

An excerpt. The share of hits here may be higher or lower than overall.
